KCNQ2 pot – potentiators of rat KCNQ2 potassium channel; B-score at 10 µM; CHO-K1 KCNQ2, FluxOR thallium flux fluorescence; stronger effect = higher value; actives 0.54% (n = 310,000); O88943;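 active = fluorescence ratio B-score at least 3 SD of library B-scores, with initial fluorescence B-score within 3 SD, cut at about 5.3 in these data; same plate scores as AID 2156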;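 note: B-score of peak minus minimum over baseline fluorescence ratio after K+ and Tl+ stimulus; positive B-score means potentiation of KCNQ2 with more thallium influx and brighter signal; only the inactives scoring about 0 or higher are listed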
Target sequence (O88943 whole entry, looked up): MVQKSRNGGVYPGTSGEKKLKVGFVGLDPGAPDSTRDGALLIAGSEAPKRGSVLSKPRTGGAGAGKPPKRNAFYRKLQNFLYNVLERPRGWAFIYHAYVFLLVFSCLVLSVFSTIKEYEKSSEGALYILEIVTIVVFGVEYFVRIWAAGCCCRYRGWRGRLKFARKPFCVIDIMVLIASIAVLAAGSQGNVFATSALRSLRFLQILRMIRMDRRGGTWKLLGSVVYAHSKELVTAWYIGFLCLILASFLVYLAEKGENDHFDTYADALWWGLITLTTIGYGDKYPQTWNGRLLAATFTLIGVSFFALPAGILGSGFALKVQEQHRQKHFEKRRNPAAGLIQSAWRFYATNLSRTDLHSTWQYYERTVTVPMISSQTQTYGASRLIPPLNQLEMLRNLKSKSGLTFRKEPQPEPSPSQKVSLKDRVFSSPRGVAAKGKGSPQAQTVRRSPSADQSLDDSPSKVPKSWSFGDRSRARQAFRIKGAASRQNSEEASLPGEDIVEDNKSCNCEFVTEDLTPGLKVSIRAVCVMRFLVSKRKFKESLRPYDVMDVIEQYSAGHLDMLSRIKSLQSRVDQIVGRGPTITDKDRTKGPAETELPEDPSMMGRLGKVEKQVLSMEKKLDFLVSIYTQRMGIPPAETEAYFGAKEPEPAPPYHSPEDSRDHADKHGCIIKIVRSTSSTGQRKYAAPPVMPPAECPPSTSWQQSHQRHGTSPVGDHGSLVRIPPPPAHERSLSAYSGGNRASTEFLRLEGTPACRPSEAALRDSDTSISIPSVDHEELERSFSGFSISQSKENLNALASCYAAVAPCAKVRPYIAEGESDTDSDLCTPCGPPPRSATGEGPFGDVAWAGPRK
KCNQ2 pot baseline – recorded beside KCNQ2 pot, whose call it bears; B-score; compound at 10 µM; measured here: initial fluorescence intensity artifact check;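 brightness before thallium and not channel activity; 0 = typical well and far values either way flag optical interference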
* hit, by the source's call; . = no result given. Not all compounds are listed; rates above refer to the full screens.

SMILES	KCNQ2 pot	KCNQ2 pot baseline
CCN(CC)CCN1C(=O)C(=O)/C(=C(/O)c2ccncc2)C1c1ccccc1 (configuration not stated)	0.05	0.03
Cc1ccc2oc3c(c(=O)c2c1)C(c1cccs1)N(CCCN(C)C)C3=O (configuration not stated)	1.7	1.2
CN1CC(=O)NC1=NC(=O)c1cc(F)c(F)cc1Cl	0.74	1.6
COc1ccccc1OCCNC(=O)c1ccc(C)c(S(=O)(=O)N2CCOCC2)c1	1.4	0
CCN(CC(=O)Nc1ccccc1C(F)(F)F)C(=O)CCS(=O)(=O)c1ccc(C)cc1	0.49	1.2
Cc1nc([N+](=O)[O-])cn1CCC#N	0.44	-0.83
COc1cccc(N2CC(C(=O)Nc3ccc(C(=O)OC(C)C)cc3)CC2=O)c1 (configuration not stated)	0.93	0.08
CC1CC(C)CN(c2cc(N(C)CCO)c([N+](=O)[O-])c3nonc23)C1 (configuration not stated)	0.5	-0.88
CCc1nnc(NC(=O)C2CCCN(c3nc(C)cc(C)n3)C2)s1 (configuration not stated)	0.62	-0.13
COc1ccc(NC(=S)N(C(C)C)C2CCN(C(C)C)CC2)cc1Cl	0.82	-0.67
COc1ccccc1N1Cc2ccc(OC)c(OC)c2C1=O	0.66	-0.42
CC(=O)Nc1ccc(S(=O)(=O)Nc2cccc3cccnc23)cc1	0.95	1.8
CC1CCN(C(=O)CSc2ccc(-c3ccc4c(c3)OCCO4)nn2)CC1	0.7	-0.65
CC1(O)c2ccccc2C(=O)N1Cc1ccccc1 (configuration not stated)	0.05	-1
O=C(CN(C(=O)CNS(=O)(=O)c1ccccc1)c1ccc(F)cc1)NCc1ccco1	0.95	-0.01
c1cnc(-c2noc(CN3CCN(C4CCCC4)CC3)n2)cn1	1.4	0.11
COCCOC(=O)C1=C(C)NC(=S)NC1c1cccs1 (configuration not stated)	0.27	-0.79
CCOc1cc(C2C3=C(CCCC3=O)OC3=C2C(=O)CCC3)cc([N+](=O)[O-])c1O	2.1	-0.73
CS(=O)(=O)N1CCN(c2ncccn2)CC1	0.68	-0.12
O=C(O)C1CCCN1C(=O)Nc1ccc(Cl)cc1 (configuration not stated)	0.14	0.76
Cc1cc(C)c2[nH]c(=O)c(CN(Cc3ccco3)C(=O)C3CCCO3)cc2c1 (configuration not stated)	0.35	-1
COCCNC(=O)CN1C(=O)c2cccc3cccc1c23	1.9	0.09
CCOc1cc(NS(=O)(=O)c2ccc(OC)cc2)c(OCC)cc1NC(C)=O	0.9	-1.2
CCSc1sccc1C1C(C#N)=C(N)N(c2cccnc2)C2=C1C(=O)CC(C)(C)C2 (configuration not stated)	0.3	0.8
Nc1nc(CSc2ccccn2)nc(Nc2ccccc2)n1	5.5*	-0.13*
CCOC(=O)NC(NC(=O)OCC)C(=O)c1ccc(F)cc1	0.98	-0.45
CC1CCCCC1NC(=O)CSc1ccc([N+](=O)[O-])cc1 (configuration not stated)	1	2.8
COc1cccc(C(=O)NC2CCN(CC(=O)Nc3nccs3)CC2)c1	0.28	-0.35
Cc1c(C)c(C)c(S(=O)(=O)NCCc2ccccn2)c(C)c1C	0.43	0.05
OCCC1CN(Cc2cccc3c2OCO3)CCN1C1CCCC1 (configuration not stated)	1.1	-2.1
CC/C(=N\NC(=O)C1CCCC1)c1cccc(Br)c1	2.4	0.29
Cc1ccc(S(=O)(=O)N2CCCCCC2)cc1C(=O)NCc1ccccn1	1.1	0.39
O=C(NC(NC(=S)Nc1c(Cl)cccc1Cl)C(Cl)(Cl)Cl)c1cccc([N+](=O)[O-])c1 (configuration not stated)	0.07	0
O=C(Cc1csc(NC(=O)Nc2ccc(Cl)cc2)n1)NC1CCCC1	0.05	-0.21
O=C1N/C(=N\c2ccccn2)SC1Cc1ccccc1Cl (configuration not stated)	0.96	0.84
CCOC(=O)N1CCN(CC(O)COC2CC(C)CCC2C(C)C)CC1 (configuration not stated)	1.2	0.49
CCCc1nnc(NC(=O)C2CC(=O)N(C3CCCC3)C2)s1 (configuration not stated)	0.75	-0.82
COc1ccc(-c2nnc3sc(-c4ccccn4)nn23)cc1	1.6	-0.19
c1coc(Cn2c(SCc3nc4ccccc4[nH]3)nnc2-c2cnccn2)c1	3.6	-0.97
COc1ccc(C(=O)C2CCCN(C(=O)c3cc(C)nc(C)n3)C2)cc1OC (configuration not stated)	0.68	1.1

The last 4 compounds of the part above are carried over, then new ones follow.
SMILES	KCNQ2 pot	KCNQ2 pot baseline
CCCc1nnc(NC(=O)C2CC(=O)N(C3CCCC3)C2)s1 (configuration not stated)	0.75	-0.82
COc1ccc(-c2nnc3sc(-c4ccccn4)nn23)cc1	1.6	-0.19
c1coc(Cn2c(SCc3nc4ccccc4[nH]3)nnc2-c2cnccn2)c1	3.6	-0.97
COc1ccc(C(=O)C2CCCN(C(=O)c3cc(C)nc(C)n3)C2)cc1OC (configuration not stated)	0.68	1.1
CCCN1CCC(NC(=O)CCc2nnc(-c3ccccc3)o2)CC1	0.68	-0.5
CCN1CCN(C(=O)c2c(-c3c(F)cccc3Cl)noc2C)CC1	0.89	1.2
O=C(O)c1cc(S(=O)(=O)NCCN2CCNC2=O)ccc1O	1.6	1.1
CCOc1ccc(NC(=S)NCC(c2cccnc2)N2CCOCC2)cc1 (configuration not stated)	0.66	0.94
CCN(CC)C(=O)CSc1nc(O)cc(=O)n1CC	0.24	0.09
O=c1c(CO)cc(CO)cc(CO)c1O	0.57	-0.07
CS(=O)(=O)N1CCc2cc(C(=O)Nc3ccccc3)ccc21	1.2	-0.55
CN(C)CC(O)COc1cc2ccccc2cc1C(=O)N1CCCCC1 (configuration not stated)	1.8	0.16
CC1CC(C)CN(CCCNC(=O)c2ccc3nc(N4CCOCC4)sc3c2)C1 (configuration not stated)	0.99	0.45
O=C(c1cc(Cl)ccc1[N+](=O)[O-])n1cnc2ccccc21	0.58	-2.1
O=C(CSc1nncs1)N1c2ccccc2Sc2ccccc21	1	0.89
C#CCSc1ncc(S(=O)(=O)c2ccccc2)c(=O)[nH]1	1.1	-0.15
CCN(CC)CCOc1cccc(C(C)C)c1	0.87	-0.4
O=c1c(Cc2ccc(F)cc2)c(O)ccn1CCCN1CCOCC1	0.78	0.01
CC(=O)Nc1cccc(NC(=O)c2ccc3[nH]c(C)c(C)c3c2)c1	1.7	-0.18
C=CCNC(=O)O/N=C/c1csc([N+](=O)[O-])c1	0.22	-0.01
C=CCC(=O)NC1CCCc2c1cnn2-c1cc(F)cc(F)c1 (configuration not stated)	0.31	-1.5
O=C(CSCc1c(F)cccc1Cl)Nc1ccccc1C(=O)N1CCOCC1	1.2	0.65
COC(=O)c1ccc2[nH]ccc2c1	0.26	2.3
O=C(CN1CCOCC1)Nc1ncc(Cc2ccccc2Cl)s1	0.76	1.6

A few values from the list.
Entry for O=C(O)c1cc(S(=O)(=O)NCCN2CCNC2=O)ccc1O under KCNQ2 pot: 1.6
Entry for CCCN1CCC(NC(=O)CCc2nnc(-c3ccccc3)o2)CC1 under KCNQ2 pot: 0.68

Next structures follow.
SMILES	KCNQ2 pot	KCNQ2 pot baseline
CN(Cc1cccnc1)C(=O)c1cc(COc2ccc3c(c2)CCCC3)on1	1.4	-0.46
O=C(CCCN1C(=O)[C@H]2CC=CC[C@H]2C1=O)NCc1nc(-c2ccccc2)no1	0.06	0.08
Cc1cccc(C(=O)NN/C=C/C(=O)c2ccccc2)c1	0.68	1.1
O=C(COc1ccccc1Cl)N1CCN(c2ccc([N+](=O)[O-])c(N3CCOCC3)c2)CC1	1	-0.7
O=C(Nc1ccc2c(c1)OCCO2)C(=S)NCc1ccccc1	0.26	-1.3
Cc1cccc(NC(=O)c2ccc(S(=O)(=O)N3CCCC3)cc2)c1C	1.4	1.2
O=S(=O)(CCc1ccccc1)/N=C/c1cccs1	3.4	-0.56
CCOC(=O)C1CCN(C(=O)C2CCCN(c3ncnc4c3nc3n4CCCCC3)C2)CC1 (configuration not stated)	1.4	-1.3
O=C1c2cccc3cccc(c23)C(=O)N1c1cccnc1	0.13	0.45
Cc1ccc(S(=O)(=O)N2CCCC2C(=O)N(C)Cc2cccs2)cc1 (configuration not stated)	0.41	-0.1
Cc1c(NC(=O)COC(=O)c2ccc[nH]c2=O)c(=O)n(-c2ccccc2)n1C	0.33	1.4
O=C(N1CCCCC1)C1(S(=O)(=O)c2ccccc2)CC=CC1	0.68	0.23
CN(C)S(=O)(=O)c1cccc(NC(=O)c2cccc(S(=O)(=O)N3CCCCC3)c2)c1	0.05	-0.31
CCS(=O)(=O)c1ccc(-c2cccc(NC(=O)c3ccco3)c2)nn1	0.08	-0.04
COc1ccc(S(=O)(=O)N2CCCCCC2)cc1C(=O)OCC(=O)NC(C)(C)C	0.08	-1.2
Cc1nn(CCC(=O)O)c(C)c1C	0.6	-0.06
CCN(Cc1ccccc1)C(=O)CC1Oc2ccccc2NC1=O (configuration not stated)	0.54	0.03
CCCCCCC(=O)Nc1ccc(S(=O)(=O)Nc2onc(C)c2C)cc1	1.6	-1.5
CC(=O)C[C@H]1c2ccccc2S(=O)(=O)N1c1ccccc1	0.34	-0.34
C=CCn1c(N)c(C(=O)Nc2ccccc2OC)sc1=S	0.91	0.34
CCOc1cc(CNc2ncnc3nc[nH]c23)ccc1OC	1	2.1
NC(=O)NCCCC(=O)NCC(c1ccccc1Cl)c1c[nH]c2ccccc12 (configuration not stated)	0.45	-0.05
CCNC(=O)C/C(C)=N/NC(=O)C1CCCCC1	0.91	-0.27
COc1ccc(/C=N/NC(=O)Cc2ccc(Cl)cc2)cc1OC	0.35	0.03
N#C/C(=N\Nc1cccc(C(F)(F)F)c1)C(=O)c1ccsc1	3	0.12
COc1ccc(C2NC(=S)NC3=C2CCCC3=C2SCCS2)cc1 (configuration not stated)	0.69	-0.96
CCCCNC(=O)Nc1ccccc1CC	1.8	-1.2
COCC(C)OC(=O)c1c(N)n(CC(C)C)c2nc3ccccc3nc12 (configuration not stated)	1.5	-1.2
COc1cc(/C=C/C(=O)Nc2nnc(CC(C)(C)C)s2)cc(OC)c1OC	0.99	-0.5
CC(NC(=O)COC(=O)CSc1ccc(F)cc1)c1ccc(F)cc1 (configuration not stated)	0.49	0.69
Cc1cc(C)cc(C(=O)Oc2coc(CSc3nnc(NC(=O)C4CC4)s3)cc2=O)c1	0.02	-0.88
CCN(CC)N=Nc1ccc(S(=O)(=O)Nc2nc(C)cc(C)n2)cc1	2.1	.
CCOC(=O)c1cc(-c2cccs2)nn1CCC#N	0.69	0.54
CCCCCCC(=O)Nc1nc(C)c(-c2csc(Nc3cc(Cl)ccc3OC)n2)s1	0.02	-1.6
Nc1ncc(-c2cc3ccccc3oc2=O)s1	1.1	1.3
Cc1ccc2nc(-c3ccccn3)cc(C(=O)NC3CCN(C)CC3)c2c1	0.89	2
COc1ccc(C(=O)c2ccc(N3CCN(C4CC(=O)NC4=O)CC3)cc2)cc1F (configuration not stated)	0.26	1.1
Cc1cc(C)nc(NC(=O)/C=C/c2ccc3c(c2)OCO3)c1	0.02	-0.71
CCOC(=O)Cn1cnc2c(nnn2-c2ccc(C)cc2)c1=O	0.85	0.32
Cc1cc(=O)[nH]c(SCC(=O)Nc2nonc2C)n1	0.17	0.03

Random excerpt: three entries already listed, in no set order.
SMILES	KCNQ2 pot	KCNQ2 pot baseline
N#C/C(=N\Nc1cccc(C(F)(F)F)c1)C(=O)c1ccsc1	3	0.12
COc1ccc(C(=O)c2ccc(N3CCN(C4CC(=O)NC4=O)CC3)cc2)cc1F (configuration not stated)	0.26	1.1
COc1ccc(C2NC(=S)NC3=C2CCCC3=C2SCCS2)cc1 (configuration not stated)	0.69	-0.96

Record cards, as listed above.
CC1CCN(C(=O)CSc2ccc(-c3ccc4c(c3)OCCO4)nn2)CC1 is entered as KCNQ2 pot: 0.7; KCNQ2 pot baseline: -0.65
Cc1cc(C)c2[nH]c(=O)c(CN(Cc3ccco3)C(=O)C3CCCO3)cc2c1 (configuration not stated) is entered as KCNQ2 pot: 0.35; KCNQ2 pot baseline: -1

Continued:
SMILES	KCNQ2 pot	KCNQ2 pot baseline
CCOCCCN1C(=O)CN(C2CCCCC2)C(=O)C1c1ccc(OC)c(OC)c1 (configuration not stated)	1.6	-0.91
O=C(NCc1ccco1)c1cc(S(=O)(=O)N2CCCc3ccccc32)ccc1Cl	0.97	0.06
CC(=O)Nc1ccc(S(=O)(=O)Nc2nnc(C3CCCCC3)s2)cc1	0.7	-0.41
CCN(CC)CCCC(C)NC1=NCCCCC1 (configuration not stated)	0.03	0.81
COc1ccc(CN(C)C(=O)c2ccc(NS(=O)(=O)c3ccc4[nH]c(=O)[nH]c4c3)cc2)c(OC)c1	0.42	1.8
CCOC(=O)C1CCCN(c2c(NCCN3CCCCC3CC)c(=O)c2=O)C1 (configuration not stated)	2.3	-1.1
Cn1c(N)c(C(=O)COC(=O)CCCN2C(=O)c3ccccc3C2=O)c(=O)n(C)c1=O	1.3	0.12
Cc1ccc(Cn2c(SCC(N)=O)nc3c2c(=O)n(C)c(=O)n3C)cc1	0.29	1.6
NC(=O)C(c1ccccc1)C1CCCC1 (configuration not stated)	0.26	-0.5
COc1ccc(OCC(O)CNC(=O)Nc2ccc(F)cc2)cc1 (configuration not stated)	2.3	-3.3
Cc1cc(C)n(-c2ccc(C(=O)NCc3ccc4c(c3)OCO4)cc2)n1	0.49	-0.08
COc1ccc(/C=N/NC(=O)CCC(=O)Nc2ccccc2)cc1OC	0.36	1.2
CC(=O)c1cc(-c2ccc(F)cc2)n(CCC(=O)Nc2cccc(C)n2)c1C	1.7	0.53
C(=C\CSc1nnnn1-c1ccccc1)/CSc1nnnn1-c1ccccc1	0.4	-0.61
O=C(COc1ccc2ccc(=O)oc2c1)NCCCn1ccnc1	0.35	3
CCOC(=O)N1CCC(NC(=S)Nc2ccc3nc(N4CCN(CC)CC4)cc(C)c3c2)CC1	0.45	0.03
